Source: PubChem BioAssay (several laboratories)
UUG fidelity – modulators of start codon recognition fidelity in yeast; S. cerevisiae UUG-firefly luciferase reporter, luminescence/redox ratio; activity score, % at 18.7 µM; 0.13% of 350,000 active; AID 602363;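 active means replicate mean at a twofold rise or more, about +100% in these data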;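 further: firefly luciferase made from a UUG start codon reports start codon fidelity; reporter light over untreated wells divided by growth signal over untreated wells; some hits fall short of that in this replicate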
eIF4H FP inh – inhibitors of RNA binding by human eIF4H; eIF4H fluorescence polarization binding assay; inhibition, % at 35 µM; 0.94% of 290,000 active; AID 2012;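 active means 50% or more with normal probe brightness, or confirmed in later tests; inconclusive means above 50% with abnormal brightness, or retests that disagree; inactive means below 50% or failed in later tests; about a fifth of its hits are not listed in these tables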;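 further: calls also rest on retests at 20 µM and on dose response follow-up; 0% = protein and probe with vehicle and 100% = probe without protein; strong numbers were not always called active; many hits fall short of the cut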
HIV Env fusion – blocks HIV Env-driven cell-cell fusion | HeLa-JRFL Env/CEM21 cell fusion, luciferase | 1.1% of 360,000 active | AID 651610 | inhibition, % at 12.3 µM;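 active means mean replicate inhibition score of at least 50 and every replicate individually at or above 50; inconclusive means only one of the two criteria met; inactive means mean below 50 and not all replicates reaching 50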;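 further: 0% = plate neutral controls and 100% = maraviroc near 300 nM; one replicate is shown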
PABP polyA inh – PABP-poly(A) binding inhibition; P11940; PABP-poly(A) RNA binding, fluorescence polarization; inhibition, % at 35 µM; 1% of 290,000 active;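 active means 50% or more with normal probe brightness, or confirmed in later tests; inconclusive means above 50% with abnormal brightness, or retests that disagree; inactive means below 50% or failed in later tests; about a fifth of its hits are not listed in these tables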;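 further: calls also rest on retests at 20 µM and on dose response follow-up; controls were probe without protein and protein plus probe with vehicle; some compounds called inactive have numbers as strong as hits; many hits fall short of the cut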
Target sequence (P11940 whole entry, looked up): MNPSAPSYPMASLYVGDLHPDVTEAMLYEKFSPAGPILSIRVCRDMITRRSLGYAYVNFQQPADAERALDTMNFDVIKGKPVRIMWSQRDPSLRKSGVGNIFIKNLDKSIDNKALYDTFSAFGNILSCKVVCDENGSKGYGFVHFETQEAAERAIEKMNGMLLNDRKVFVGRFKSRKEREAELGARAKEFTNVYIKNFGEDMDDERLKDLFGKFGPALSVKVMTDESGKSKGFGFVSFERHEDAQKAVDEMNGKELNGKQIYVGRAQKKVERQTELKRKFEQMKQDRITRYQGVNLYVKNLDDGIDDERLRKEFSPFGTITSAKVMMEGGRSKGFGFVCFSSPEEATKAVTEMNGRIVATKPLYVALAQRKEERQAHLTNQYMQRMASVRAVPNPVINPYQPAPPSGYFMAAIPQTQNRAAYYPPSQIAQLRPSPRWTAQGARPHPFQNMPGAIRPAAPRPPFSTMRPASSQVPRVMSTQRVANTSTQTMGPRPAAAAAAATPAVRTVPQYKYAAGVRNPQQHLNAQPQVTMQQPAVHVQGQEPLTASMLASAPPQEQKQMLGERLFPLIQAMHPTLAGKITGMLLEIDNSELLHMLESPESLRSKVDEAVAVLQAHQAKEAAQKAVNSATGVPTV
Rce1 inhib – inhibitors of yeast Ras-converting enzyme; yeast membranes, quenched prenylated peptide cleavage fluorescence; 0.27% of 290,000 active; calls only; Q03530;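 active means fall in fluorescence gain of 50% or more versus controls, with final raw signal at or below 3038400; inconclusive means same 50% fall but final raw signal above 3038400; inactive means fall in fluorescence gain under 50%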;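 further: plate controls were neutral control wells for no effect and wells lacking membranes for full effect; tested at 10 µM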
Target sequence (Q03530 whole entry, looked up): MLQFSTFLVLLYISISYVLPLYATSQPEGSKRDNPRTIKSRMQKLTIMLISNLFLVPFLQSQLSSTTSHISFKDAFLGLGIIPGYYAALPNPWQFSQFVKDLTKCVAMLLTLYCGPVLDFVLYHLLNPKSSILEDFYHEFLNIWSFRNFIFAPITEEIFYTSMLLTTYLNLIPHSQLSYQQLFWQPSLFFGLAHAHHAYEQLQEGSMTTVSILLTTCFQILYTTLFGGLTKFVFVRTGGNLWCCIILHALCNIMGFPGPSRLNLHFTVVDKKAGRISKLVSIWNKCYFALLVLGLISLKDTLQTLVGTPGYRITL
CSC inhib – blocks cancer stem cells; cancer stem cell-like cells viability, luminescence; inhibition, % at 7.5 µM; 1.1% of 300,000 active;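 active means mean at 75% or more and at least half the replicates too; inconclusive means mean and replicates disagree; tested in HMLE shEcad cells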;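 further: 0% = median of negative and 100% = median of positive control wells; the first replicate is given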
MT1-MMP act inh – MT1-MMP (human) activation inhibition; GFP/RFP ratio change, % at 20 µM; 0.061% of 360,000 active; P50281; HT1080 RFP-PRO-GFP cells, GFP/RFP ratio fluorescence, overnight; percent of plate control window, DMSO zero;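 active means GFP/RFP ratio change of at least 30% with cell ATP level not reduced by more than half and red fluorescence within 50% of control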; further: strong numbers were not always called active
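Read-out: GFP/RFP fluorescence ratio; Test system: RFP-PRO-GFP reporter HT1080 cells; Compound dosing: single-point 20 µM compound, 1% DMSO; Times: overnight compound exposure at 37 °C.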
eIF4H FP inh retest – second read-out of eIF4H FP inh, no call of its own (marks repeat the call); inhibition, %; compound at 20 µM; confirmation average;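 mean of two retest wells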
PABP polyA inh retest – further read-out of PABP polyA inh, marked with its call; inhibition, %; compound at 20 µM; confirmation repeats;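 mean of two retest wells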
MT1-MMP act inh RFP – further read-out of MT1-MMP act inh, marked with its call; RFP signal change, %; measured here: RFP expression control read;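 0 = vehicle wells; hits needed this value within 50% of zero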
Active calls of the source: *.

For CCOC(=O)c1cnn(-c2ccccc2)c1-n1cccc1C(=O)C(=O)Nc1ccccc1C(F)(F)F the results were UUG fidelity -3, eIF4H FP inh -1, PABP polyA inh -4, Rce1 inhib inactive, CSC inhib 9, MT1-MMP act inh -11 and MT1-MMP act inh RFP -12.
`COc1ccc(C)cc1NC(=O)C(c1ccccc1)N1CCN(CC(=O)N2CCCC2)CC1` (stereo not given) gave UUG fidelity -14, HIV Env fusion -2, MT1-MMP act inh 3 and MT1-MMP act inh RFP 0.
CC(CCc1ccccc1)NC(=O)CCC(=O)N1CCC(C(N)=O)CC1 (stereo not given) was read as UUG fidelity -8, eIF4H FP inh 10, HIV Env fusion 9, PABP polyA inh 6, Rce1 inhib inactive, CSC inhib -10, MT1-MMP act inh 1 and MT1-MMP act inh RFP 0.
Screening CCOc1cc(C2NN=C(c3ccc(C)cc3)S2)ccc1O (stereo not given) returned eIF4H FP inh -1, HIV Env fusion -3, PABP polyA inh inconclusive, CSC inhib 105*, MT1-MMP act inh 0 and MT1-MMP act inh RFP 0.
O=C(NCCO)C(=O)Nc1cc2c3c(c1)CCC(=O)N3CCC2 was read as UUG fidelity -4, eIF4H FP inh -8, HIV Env fusion 3, PABP polyA inh 9, Rce1 inhib inactive, CSC inhib 1, MT1-MMP act inh 0 and MT1-MMP act inh RFP 3.
`Cc1ccc(C(=O)COC(=O)CCc2ccc(S(=O)(=O)N3CCCCC3)cc2)cc1` gave UUG fidelity -13, eIF4H FP inh -9, HIV Env fusion -31, PABP polyA inh 17, Rce1 inhib inactive, CSC inhib -1, MT1-MMP act inh -1 and MT1-MMP act inh RFP 3.
CCOC(=O)C1(Cc2ccccc2C(F)(F)F)CCN(C2CCCC2)CC1 was read as UUG fidelity -17, eIF4H FP inh 6, HIV Env fusion 8, PABP polyA inh -3, Rce1 inhib inactive, CSC inhib 14, MT1-MMP act inh 0 and MT1-MMP act inh RFP 2.
CC(=N/O)/C(C)=N\NC(=O)c1ccccn1 was read as UUG fidelity -41, eIF4H FP inh 2, HIV Env fusion -49, PABP polyA inh -4, Rce1 inhib inactive, CSC inhib 3, MT1-MMP act inh 2 and MT1-MMP act inh RFP 2.
COc1cccc(CN2CC(C(=O)NCCN3CCOC3=O)CCC2=O)c1 (stereo not given) was read as UUG fidelity 2, eIF4H FP inh -6, HIV Env fusion -18, PABP polyA inh -4, Rce1 inhib inactive, CSC inhib -2, MT1-MMP act inh -3 and MT1-MMP act inh RFP 4.
For Cc1cccc(C)c1NC(=O)CSc1nnc(NC(=O)CN2CCOCC2)s1 the results were UUG fidelity -22, eIF4H FP inh 2, HIV Env fusion -62, PABP polyA inh -6, Rce1 inhib inactive, CSC inhib 7, MT1-MMP act inh 4 and MT1-MMP act inh RFP 9.
Screening COc1ccc([N+](=O)[O-])cc1NC(=O)CSCc1ccccc1 returned UUG fidelity -15, eIF4H FP inh 4, HIV Env fusion -2, PABP polyA inh -10, Rce1 inhib inactive, CSC inhib 0, MT1-MMP act inh 2 and MT1-MMP act inh RFP 0.
For CCCNC(=S)N1CCC(NC(=O)C23CC4CC(CC(C4)C2)C3)CC1 the results were UUG fidelity -17, eIF4H FP inh -6, HIV Env fusion 10, PABP polyA inh -4, Rce1 inhib inactive, CSC inhib -16, MT1-MMP act inh 12 and MT1-MMP act inh RFP 0.
For COc1cccc(N2C(=O)C(c3ccccc3)=C(c3nc4ccccc4s3)C2NC(C)=O)c1 (stereo not given) the results were UUG fidelity -14, eIF4H FP inh -7, HIV Env fusion -10, PABP polyA inh -6, Rce1 inhib inactive, CSC inhib -3, MT1-MMP act inh -1 and MT1-MMP act inh RFP -6.
COc1ccc(/C=C(\NC(=O)c2ccc(Cl)cc2)C(=O)NCc2cccnc2)cc1OC was read as UUG fidelity -26, HIV Env fusion 10, MT1-MMP act inh 2 and MT1-MMP act inh RFP 4.
For Cc1ccccc1OCc1csc(N)n1 the results were eIF4H FP inh -5, HIV Env fusion -18, PABP polyA inh 5, Rce1 inhib inactive, CSC inhib -11, MT1-MMP act inh 1 and MT1-MMP act inh RFP 2.

Next section (two carried over from the part before).
COc1ccc(/C=C(\NC(=O)c2ccc(Cl)cc2)C(=O)NCc2cccnc2)cc1OC was read as UUG fidelity -26, HIV Env fusion 10, MT1-MMP act inh 2 and MT1-MMP act inh RFP 4.
For Cc1ccccc1OCc1csc(N)n1 the results were eIF4H FP inh -5, HIV Env fusion -18, PABP polyA inh 5, Rce1 inhib inactive, CSC inhib -11, MT1-MMP act inh 1 and MT1-MMP act inh RFP 2.
`COCCNc1ccc(-c2nn(C)c(=O)c3ccccc23)cc1[N+](=O)[O-]` gave UUG fidelity -7, eIF4H FP inh -9, HIV Env fusion 5, PABP polyA inh -3, Rce1 inhib inactive, CSC inhib -10, MT1-MMP act inh 8 and MT1-MMP act inh RFP 4.
CSc1ccc(CNCCN2CCOCC2)cc1 was read as UUG fidelity -4, eIF4H FP inh -5, HIV Env fusion -3, PABP polyA inh 14, Rce1 inhib inactive, MT1-MMP act inh 3 and MT1-MMP act inh RFP 2.
For Cc1ccc(C2=NN(C(=O)CSc3nnnn3C)C(c3ccco3)C2)cc1 (stereo not given) the results were UUG fidelity 0, HIV Env fusion 0, CSC inhib -9, MT1-MMP act inh -4 and MT1-MMP act inh RFP -3.
For O=C(N/N=C/c1ccccc1O)C(=O)Nc1ccccn1 the results were eIF4H FP inh 15, HIV Env fusion 23, PABP polyA inh 16, Rce1 inhib inactive, CSC inhib 13, MT1-MMP act inh 1 and MT1-MMP act inh RFP -4.
`Cn1cc(/C=C(\C(=O)O)C(C(=O)O)=C2CCCCC2)c2ccccc21` gave eIF4H FP inh 12, HIV Env fusion 16, PABP polyA inh 18, Rce1 inhib inactive, CSC inhib -30, MT1-MMP act inh -1 and MT1-MMP act inh RFP 6.
Screening C=CCN(CC=C)C(=O)CN1C(=O)c2ccccc2C1=O returned UUG fidelity -5, eIF4H FP inh 0, HIV Env fusion -40, PABP polyA inh -4, Rce1 inhib inactive, CSC inhib -5, MT1-MMP act inh -2 and MT1-MMP act inh RFP 4.
COc1ccc(S(=O)(=O)N2CCN(C(=O)C3CCCCC3)CC2)cc1 was read as UUG fidelity -25, eIF4H FP inh 3, HIV Env fusion 7, PABP polyA inh 4, Rce1 inhib inactive, CSC inhib -16, MT1-MMP act inh -3 and MT1-MMP act inh RFP -4.
`O=c1[nH]c(=O)n2ncnc2[nH]1` gave UUG fidelity -14, HIV Env fusion 8, MT1-MMP act inh -6 and MT1-MMP act inh RFP 2.
`CCCCn1nnnc1NCc1ccc(OC)c(OC)c1` gave UUG fidelity -18, eIF4H FP inh 2, PABP polyA inh -12, Rce1 inhib inactive, CSC inhib 0, MT1-MMP act inh -3 and MT1-MMP act inh RFP -2.
For COc1ccccc1NC(=O)C(C)Sc1nc(-c2ccccc2)cn1N (stereo not given) the results were UUG fidelity -17, HIV Env fusion 1, MT1-MMP act inh 0 and MT1-MMP act inh RFP -7.
OCC1(CCOc2ccccc2)CCN(Cc2ccc(OC(F)F)cc2)CC1 was read as UUG fidelity 3, eIF4H FP inh 1, HIV Env fusion 8, PABP polyA inh -10, Rce1 inhib inactive, CSC inhib 18, MT1-MMP act inh 4 and MT1-MMP act inh RFP -4.
`O=C(O)CCc1ccc(-c2cccs2)o1` gave UUG fidelity -16, eIF4H FP inh 70*, PABP polyA inh 36*, Rce1 inhib inactive, MT1-MMP act inh 1, eIF4H FP inh retest 78*, PABP polyA inh retest 86* and MT1-MMP act inh RFP 3.
Screening CN(C)S(=O)(=O)c1cc(NC(=O)CN2CCN(c3ccc(O)cc3)CC2)ccc1Cl returned eIF4H FP inh -1, HIV Env fusion 11, PABP polyA inh 3, Rce1 inhib inactive, CSC inhib 3, MT1-MMP act inh 6 and MT1-MMP act inh RFP 2.
`O=C(CCOc1ccccc1)Nc1ccnn1C1CCN(Cc2ccc(CO)o2)CC1` gave UUG fidelity -7, eIF4H FP inh -12, HIV Env fusion 9, PABP polyA inh 13, Rce1 inhib inactive, CSC inhib 0, MT1-MMP act inh -1 and MT1-MMP act inh RFP 0.
For c1ccc(-n2cc(CN3CCCC3)c(-c3ccc4c(c3)OCO4)n2)cc1 the results were UUG fidelity -12, eIF4H FP inh -1, HIV Env fusion -3, PABP polyA inh 6, Rce1 inhib inactive, CSC inhib 5, MT1-MMP act inh -1 and MT1-MMP act inh RFP 0.
`COc1ccc(/C=C/C(=O)NCC(c2ccc(F)cc2)N2CCOCC2)cc1OC` (stereo not given) gave eIF4H FP inh -8, HIV Env fusion 4, PABP polyA inh -10, Rce1 inhib inactive, CSC inhib -7, MT1-MMP act inh -2 and MT1-MMP act inh RFP 0.
For CCC(C)NC(=O)NCc1ccccc1F (stereo not given) the results were UUG fidelity 1, eIF4H FP inh 6, HIV Env fusion -3, PABP polyA inh -8, Rce1 inhib inactive, CSC inhib -11, MT1-MMP act inh 1 and MT1-MMP act inh RFP 2.
Screening c1ccc(CSc2nnnn2-c2cccc3ccccc23)nc1 returned UUG fidelity -7, eIF4H FP inh -5, PABP polyA inh 11, Rce1 inhib inactive, CSC inhib -13, MT1-MMP act inh -4 and MT1-MMP act inh RFP -2.
Screening O=C(CCC(=O)Nc1ccccc1Cl)NNC(=O)c1ccccc1[N+](=O)[O-] returned eIF4H FP inh -7, HIV Env fusion 0, PABP polyA inh 6, Rce1 inhib inactive, CSC inhib -5, MT1-MMP act inh 1 and MT1-MMP act inh RFP 1.
COC(=O)c1cc(COC(=O)CNC(=O)c2ccc(Br)cc2)oc1C was read as UUG fidelity -10, HIV Env fusion -19, CSC inhib -12, MT1-MMP act inh 1 and MT1-MMP act inh RFP -5.
Screening CCn1c(O)c(C=Nc2ccccc2)n(-c2ccccc2)c1=S returned UUG fidelity -27, eIF4H FP inh 4, PABP polyA inh 9, Rce1 inhib inactive, CSC inhib 49, MT1-MMP act inh -3 and MT1-MMP act inh RFP -1.
Screening Cc1c(N(C)S(=O)(=O)c2cccc(C(=O)NC(C)C)c2)c(=O)n(-c2ccccc2)n1C returned UUG fidelity -26, eIF4H FP inh -15, HIV Env fusion 4, PABP polyA inh 4, Rce1 inhib inactive, CSC inhib -4, MT1-MMP act inh -2 and MT1-MMP act inh RFP -2.
`CN(C)c1nc(N)c([N+](=O)[O-])c(NCC2CCCO2)n1` (stereo not given) gave UUG fidelity -1, eIF4H FP inh -6, HIV Env fusion -10, PABP polyA inh -7, Rce1 inhib inactive, CSC inhib -10, MT1-MMP act inh 1 and MT1-MMP act inh RFP 0.
CC(NC(=O)c1cccnc1)C(=O)N1CCCCC1 (stereo not given) was read as UUG fidelity -5, eIF4H FP inh 0, PABP polyA inh 8, Rce1 inhib inactive, CSC inhib 2, MT1-MMP act inh -7 and MT1-MMP act inh RFP 1.
`Cc1nnc(SCC(=O)Nc2ccc(S(=O)(=O)N3CCCCC3)cc2)s1` gave UUG fidelity -12, eIF4H FP inh -2, PABP polyA inh -6, Rce1 inhib inactive, CSC inhib -5, MT1-MMP act inh 3 and MT1-MMP act inh RFP 2.
COc1ccc(/C=N/NC(=O)CN2CCN(Cc3ccccc3)CC2)cc1Br was read as eIF4H FP inh -11, HIV Env fusion 14, PABP polyA inh -6, Rce1 inhib inactive, CSC inhib -10, MT1-MMP act inh 1 and MT1-MMP act inh RFP 3.
CCCOc1ccc(C(=O)CCC(=O)OCC(=O)N2CC(=O)Nc3ccccc32)cc1 was read as UUG fidelity -13, eIF4H FP inh 7, HIV Env fusion -25, PABP polyA inh 0, Rce1 inhib inactive, CSC inhib 0, MT1-MMP act inh 8 and MT1-MMP act inh RFP 6.
